Source: PubChem BioAssay (National Center for Advancing Translational Sciences (NCATS))
TRPV1 potentiator: human TRPV1 potentiation. TRPV1-expressing cells, Fluo-8 calcium influx, capsaicin EC20 potentiation; host cell line not named in the record; control for the full effect not named in the record. AID 540277. 320,000 compounds, 0.02% hits. potentiation, % at 8.33 µM. Q8NER1; active means potentiation above 80%; inconclusive means 30% to 80%; inactive means below 30%; also: 0% is about no effect
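Cells expressing TRPV1 were dye-loaded with Fluo-8 and read kinetically: 10 s baseline, 3 min after compound (agonist portion), then 2 min after EC20 capsaicin (allosteric enhancer portion). Calcium-bound dye fluorescence at 480/520 nm.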
gsp antag: antagonizes gsp, the McCune-Albright syndrome mutation; gsp-mutant cells, cAMP HTRF, 30 min; control for the full effect not named in the record; Potency, µM (highest dose often 76.9 µM), without a hit: at the top dose activity change, negative = inhibition, most hits filed as inhibitors; 340,000 compounds, 0.4% hits; AID 624288; active = falling curve of any shape with a large fitted effect; inconclusive = falling curve, mostly with a smaller effect; inactive = flat or rising curve; cell line not stated here;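 also: intracellular cAMP measured with PDE inhibitor Ro 20-1724 present during compound exposure; potency is read from the fitted curve at half-maximal effect; % is scaled to controls: 0 for no effect and ±100 for the full control effect; nearly all actives have a fitted effect of over 65% in size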
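HTRF cAMP measurement after 30 min RT detection following 30 min, 37C compound treatment alongside […] (added as 300 uM solution) in G418-selected cells seeded at 2000/well and grown 16–24 h.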
gsp agonist: activates gsp, the McCune-Albright syndrome mutation. 340,000 compounds, 0.13% hits. gsp mutant cells, cAMP HTRF, 30 min; control for the full effect not named in the record. AID 624287. Potency, µM (highest dose often 76.9 µM), inactives show at the highest dose activation (cAMP increase), usual class: activators; active = well fitted activation curve with a large enough effect; inconclusive = small, poorly fitted or top-dose-only effect, or another doubt; inactive = no such curve, though single readings can be large or run the other way; cell line not stated here;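 also: phosphodiesterase inhibitor Ro 20-1724 added with compounds to block cAMP breakdown; potency is read from the fitted curve at half-maximal effect; nearly all actives have a fitted effect of over 60% in size; about a fifth of the inactives were tested at one dose only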
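Cells in DMEM/10% FBS with G418 were pretreated with compounds in DMSO plus […] (300 uM stock) for 30 min at 37C. cAMP was measured by HTRF (cAMP-d2 plus anti-cAMP antibody-K) after 30 min at room temperature.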
D2 PAM: human D2 receptor positive allosteric modulation; potentiation, % (test concentration not listed); AID 624464; DiscoveRx D2 beta-arrestin cells, luminescence, 90 min; 100% = 57 uM dopamine signal; 360,000 compounds, 0.23% hits; active = potentiation of 50% or more; inconclusive = 30% to 50%; inactive = 30% or less;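 also: compound concentration not given in the record; tested on top of an EC20 dose of dopamine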
Target sequence (P14416 whole entry, looked up): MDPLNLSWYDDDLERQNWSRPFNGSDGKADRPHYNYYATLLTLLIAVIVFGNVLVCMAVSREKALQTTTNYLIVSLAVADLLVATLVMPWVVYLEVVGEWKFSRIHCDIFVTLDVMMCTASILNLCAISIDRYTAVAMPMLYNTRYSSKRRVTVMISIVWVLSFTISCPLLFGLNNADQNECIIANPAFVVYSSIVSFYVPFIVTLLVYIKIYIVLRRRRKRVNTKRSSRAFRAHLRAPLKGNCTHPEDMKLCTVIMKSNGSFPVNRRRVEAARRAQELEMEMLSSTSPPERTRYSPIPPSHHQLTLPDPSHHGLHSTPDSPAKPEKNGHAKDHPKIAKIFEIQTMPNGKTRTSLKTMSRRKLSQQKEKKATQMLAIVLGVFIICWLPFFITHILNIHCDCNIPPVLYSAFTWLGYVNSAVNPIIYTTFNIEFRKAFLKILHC
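PathHunter D2 cells, attached overnight at 37 deg C, received compound in DMSO plus dopamine at EC20 (50 nM final) for 90 min at 37 deg C. Beta-arrestin recruitment was read as luminescence after 1 h with detection reagent at ambient temperature.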
Menin MLL FP FL: menin-MLL binding inhibition, fluorescein peptide; Fluorescence polarization, fluorescein-MLL peptide displacement from menin; FP activity change, % at 61.4 µM; 290,000 tested, under 10 active; AID 1766; inconclusive = falling polarisation curve, or a change in total fluorescence; inactive = total fluorescence flat and polarisation flat or rising; no compound was filed as active; the % refers to the polarisation; negative = inhibition;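 also: % of control where 0% means no effect; inhibitors lower the polarisation; unlabelled MLL peptide was the positive control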
ClpP mod: qHTS Assay for Activators of ClpP; purified B. subtilis ClpP, FRET peptide cleavage, 20 min; Potency, µM (top dose mostly 57.5 µM), for inactives: at the highest dose activity change, negative = active; AID 651965, 2013; 340,000 compounds, 1.9% hits; active = well fitted falling curve with a large enough effect; inconclusive = small, poorly fitted or top-dose-only effect; inactive = no such curve, though single readings can be large or run the other way; also: potency is read from the fitted curve at half-maximal effect; the source files actives as falling curves though it sought activators and does not explain the sign; nearly all actives have a fitted effect of over 65% in size; many hits overshoot -100%
Target sequence (P80244 whole entry, looked up): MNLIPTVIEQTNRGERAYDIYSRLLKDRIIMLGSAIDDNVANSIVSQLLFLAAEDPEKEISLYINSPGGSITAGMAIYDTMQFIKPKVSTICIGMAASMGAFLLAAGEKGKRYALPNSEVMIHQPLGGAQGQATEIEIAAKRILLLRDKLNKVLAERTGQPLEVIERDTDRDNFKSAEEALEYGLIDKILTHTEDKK
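FRET quenching reversal measured ClpP activation: 10 microg/mL B. subtilis ClpP at pH 8 with the FRET-FV decapeptide, read at 430 nm after 320 nm excitation. The 20-min minus 0-min signal was scaled between DMSO/no-enzyme wells and ADEP (5.8 microM final).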
Sfp PPTase inh: inhibitors of Bacillus subtilis Sfp phosphopantetheinyl transferase | Potency, µM, without a hit: max response, negative = inhibition, hits mostly inhibitors | Q9F4F7 | 310,000 compounds, 3.5% hits | AID 1490 | Biochemical Sfp PPTase activity, qHTS; active = well fitted inhibition curve with a large enough effect; inconclusive = small, poorly fitted or top-dose-only effect, or another doubt; inactive = no such curve, though single readings can be large or run the other way;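 also: the enzyme is Sfp with the accession as filed and its product quenches rhodamine fluorescence; potency is read from the fitted curve at half-maximal effect; 0% = enzyme reaction without inhibitor and -100% = no enzyme wells; top concentration of the series not given in the record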
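Step 1, compound plus 15 nM Sfp-PPTase, 15 min, room temperature. Step 2, add rhodamine-CoA (5 uM) and BHQ-2-YbbR (12.5 uM). Step 3, read 525/598 nm fluorescence at 0 and 30 min.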
The depositor's hits bear a star; ? = inconclusive; . = no result given; & = joins results of further samples; [ ] = another dose, or the depositor's remark.

SMILES | TRPV1 potentiator | gsp antag | gsp agonist | D2 PAM | Menin MLL FP FL | ClpP mod | Sfp PPTase inh
O=C1OCC/C1=C\OCCCO/C=C1\CCOC1=O | 10 | 2% | ? | -9 | 0.8 | 0.3% | 19%
CCN1C(=NCCc2ccc([N+](=O)[O-])cc2)N[C@@H](c2ccccc2)[C@H](C(=O)OC)[C@H]1C | 7 | 6% | -4% | -22 | -7.2 | 0.1% | 24%
COC(=O)CN(c1ccccc1)S(=O)(=O)c1ccccc1 | . | 7% | 13% | 2 | 4.2 | -0.2% | 4%
COc1ccc(NC(=S)Nc2ccccn2)cc1 | 2 | 7% | 13% | -7 | 3.4 | . | -4%
O=C(NCC(=O)N1CCN(c2ccccc2F)CC1)c1cccs1 | -4 | 11% | -8%[15.4 µM] | 15 | . | 1.1% | 14%
CC(C)(Cc1nc2ccccc2[nH]1)C(=O)O | -5 | 0% | -6% | -2 | 5.8 | -3.3% | 10%
CCN(C(=O)COc1ncnc2scc(-c3ccc(F)cc3)c12)C1CCS(=O)(=O)C1 (stereo not given) | 6 | -5% | -5% | 4 | -0.6 | -0.3% | 6%
CC(Cc1cccs1)NC(=O)NC1CCCCC1 (stereo not given) | -17 | 2% | -1% | -11 | 3.6 | 0.3% | 15%
O=C(Nc1ccccc1C(=O)N1CCCCC1)c1ccccc1C(F)(F)F | 12 | 17% | -53%[inhibitor] | 17 | . | -3.1% | 13%
CCc1ncc(C(=O)c2ccc(OC)cc2)n1C | -2 | 4% | 0% | -9 | -1.1 | -3.7% | 16%
CC(=O)c1ccc(N2CCN(CC(=O)NC(=O)NCc3ccccc3)CC2)cc1 | -3 | 8% | 13% | -4 | . | -3.6% | .
CC(=O)c1cccc(OCC(O)CN2CCN(S(=O)(=O)c3c(F)cccc3F)CC2)c1 (stereo not given) | 16 | 0% | 4% | -7 | -22 | -1.0% | ?
CN(C(=O)c1cccc(NC(=O)Cc2cccc(NC(=O)C3CCCN(C(=O)c4ccccc4)C3)c2)c1)C1CC1 (stereo not given) | . | 1% | . | -1 | . | -0.9% | .
CCN(C(=O)Cn1cc(C(=O)C(=O)N2CCOCC2)c2ccccc21)c1ccccc1 | 5 | 7% | -20% | -26 | 1.3 | -2.4% | 14%
CC(/C=C/c1ccccc1)=N/NC(=O)C(O)c1ccccc1 (stereo not given) | 27 | -8% | 18% | -13 | 1.1 | -13% | 9%
Cc1ccccc1CC1(CO)CCCN(C(=O)CCN2CCCO2)C1 (stereo not given) | 5 | -4% | -3% | 3 | -0.7 | -0.2% | 18%
Cc1nnc(SCC(=O)N2CCN(c3ccccc3)CC2)n(N)c1=O | -6 | 3% | 13% | -1 | 1.6 | . | 12%
Cc1ccccc1CC(=O)NC1CCCCCC1 | -29 | -17% | 0% | -3 | -0.5 | 1.9% | 9%
CCCn1nnnc1SCC(=O)NCc1ccc(OC)cc1 | -2 | 10% | -41%[inhibitor] | -16 | 0.1 | -1.1% | 3%
CC(=O)Nc1ccc(NC(=O)C(C)OC(=O)CCc2c[nH]c3ccccc23)cc1 (stereo not given) | 16 | 8% | 4% | -9 | . | 1.6% | .
CN(Cc1ccccc1)S(=O)(=O)c1cccc(C(=O)O)c1 | 10 | -9% | -3%[15.4 µM] | -2 | 1.0 | . | 21%
CCc1ccc(NC(=O)N(C2CCC(C)CC2)C2CCN(C(C)=O)CC2)cc1 (stereo not given) | 8 | -7% | -14% | -12 | -1.8 | -2.0% | 1%
CC(C)C(=O)Nc1cccc(-c2cnc3ccccc3n2)c1 | 17 | 6% | -56%[inhibitor] | -4 | 0.5 | 1.0% | 18%
CCOC(=O)N1CCN(C(=O)COc2ccccc2Cl)CC1 | -29 | 15% | -1% | -17 | 3.1 | 0.0% | -6%
C=CCn1c(SCc2csc(C)n2)nc2sc3c(c2c1=O)CCCC3 | -14 | -17% | 10%[15.4 µM] | -13 | 0.7 | -2.2% | ?
CCOc1cccc(C2C(C#N)=C(N)Oc3cc(C)oc(=O)c32)c1OCC (stereo not given) | 4 | 2% | 1% | -6 | 3.1 | -1.8% | -4%
CNC(=S)N/N=C(\C)c1ccc(Cl)s1 | -15 | 10% | -1%[15.4 µM] | -33 | 3.2 | -5.3% | 5%
CN(CC(=O)N1CCc2ccccc21)S(=O)(=O)c1ccc(Br)s1 | 12 | -9% | -41%[inhibitor] | -5 | 1.9 | 2.0% | -4%
COc1cccc2c1C(=O)c1c(O)c3c(c(O)c1C2=O)CC(O)(C(=O)CO)CC3OC1CC(N(C)C)C(O)C(C)O1 (stereo not given) | . | -32% | 24% | 10 | . | 0.6% | .
O=c1[nH]c2ccsc2c(=O)n1-c1ccc(F)c(Cl)c1 | -18 | -6% | 2% | -2 | 2.4 | -3.0% | 7%
CCOC(=O)N1CCN(C(=O)c2cn(CC)c3ccc(S(=O)(=O)N4CC(C)CC(C)C4)cc3c2=O)CC1 (stereo not given) | -1 | -17% | -25% | -3 | -0.2 | -1.2% | 13%
CC1=C(C(=O)Nc2cc(C(=O)N3CCC(C)CC3)ccc2C)SCCO1 | -9 | -1% | -19% | -8 | . | 0.7% | 12%
CCOC(=O)C1CCN(Cc2cc(C(C)C)c(O)c(C(C)C)c2)CC1 | 3 | 7% | -2%[15.4 µM] | -18 | -5.7 | . | 16%
CC(=O)c1cccc(NS(=O)(=O)c2cc3c(cc2C)NC(=O)CO3)c1 | 4 | -3% | 0% | -7 | 0.8 | -0.8% | 11%
CCOC(=O)/C(C#N)=C/c1ccc(SC)cc1 | 9 | -2% | 5%[15.4 µM] | -10 | 2.2 | . | ?
O=C(COC(=O)c1cc2c(s1)CCCC2)Nc1ccc(Cl)cn1 | 0 | 0% | ? | 0 | 0.1 | -0.2% | 17%
CCCCOc1ccc(C2/C(=C(/O)c3ccc4c(c3)CC(C)O4)C(=O)C(=O)N2CCCN2CCOCC2)cc1OC (stereo not given) | -8 | 7% | -3%[15.4 µM] | -7 | 0.5 | -1.8% | 5%
CCOC(=O)c1ccc(NC(=O)C2CC(O)CN2S(=O)(=O)c2ccc(C)cc2)cc1 (stereo not given) | . | 0% | -22% | -3 | . | -1.8% | .
COc1ccccc1/C=C1\Oc2cc(OC(=O)N3CCOCC3)ccc2C1=O | 5 | 4% | 11% | -5 | 1.0 | -5.4% | 7%
COc1cccc(CNc2ccc3c(c2)ncn3C)c1OC | 18 | -19% | 11%[15.4 µM] | -3 | 5.7 | ? | -2%
Cc1ccccc1OCC(=O)NNC(=O)CCc1ccccc1 | 5 | -4% | 26% | -5 | -6.9 | -0.6% | 24%
COC(=O)c1[nH]c2cccc(OC)c2c1NC(=O)CCN1CCC(C)CC1 | -21 | -9% | 16% | -27 | -0.7 | 25µM* | 16%
Cc1cccc(C(=O)NC(=S)NCc2cccnc2)c1 | -4 | 35%[activator] | 9% | -13 | 6.8 | 0.6% | -6%
CC(C)CC(NC(N)=O)C(=O)NCCc1ccc(Cl)cc1 (stereo not given) | 9 | 1% | 3%[15.4 µM] | -4 | -8.6 | -0.3% | 11%
COc1ccc(S(=O)(=O)N2CCC(C(=O)NCc3ccncc3)CC2)cc1OC | 6 | 14% | -4% | -8 | 4.9 | 0.4% | 8%
O=C(O)CCCCCNC(=O)c1ccccc1 | 1 | -6% | -5% | 3 | -1.0 | -2.3% | 21%
COCc1cc(C)nc2sc(C(=O)Nc3ccccc3F)c(N)c12 | 1 | -8% | 43% | -11 | 2.4 | -10% | 18%
COCCNc1nnnc2c1sc1nc(N3CCOCC3)c3c(c12)CCCC3 | -10 | . | . | . | 1.4 | . | 17%
O=C(NCc1cccs1)c1ccc(CS(=O)(=O)c2ccc(Cl)cc2)o1 | -7 | -8% | ? | -5 | 1.8 | -2.0% | -7%
O=C(CSC1=NCCN1)NC(c1ccccc1)c1ccccc1 | 6 | 11% | -9%[15.4 µM] | -44 | 1.3 | -0.6% | -1%
CCOc1ncccc1C(=O)Nc1ncc(C)s1 | -20 | 8% | -5%[15.4 µM] | -8 | 5.3 | . | 19%
Cc1ccc(NC(=O)CN(C)C(=O)c2n[nH]c(=O)c3ccccc23)cc1 | 4 | 7% | 12% | -10 | 4.2 | . | 6%
COC(=O)C1CCN(Cc2nnc(-c3ccccc3)o2)CC1 | 1 | 7% | 17% | 0 | 0.6 | . | 1%
O=C(CSc1nnc2ccccn12)Nc1ccccc1[N+](=O)[O-] | . | . | 18% | -2 | . | 4.0% | .
Cc1ccc(C(=O)Nc2nc3ccccc3n2CCN2CCCC2)cc1 | 11 | 8%[15.4 µM] | -9% | -38 | 5.1 | -4.9% | 2%
NS(=O)(=O)c1ccc(CCNC(=O)CSc2ccc3ccccc3c2)cc1 | -8 | -3% | -18% | -4 | -1.1 | . | 8%
CCC(c1nnc(SCC(=O)N2CCOCC2)n1C1CCCCC1)N(C)C (stereo not given) | ? | 1% | 0% | -13 | 0.7 | -0.1% | 4%
CCc1nnc(NC(=O)c2nc(S(=O)(=O)Cc3cccc(C)c3)ncc2Cl)s1 | -5 | 16µM* | -19%[15.4 µM] | -9 | -0.9 | 1.2% | 56µM*
CC(=O)Oc1ccc(/C(C)=N\N2CCN(Cc3ccc(Cl)cc3)CC2)cc1 | ? | -18% | -12% | -3 | 4.8 | 0.5% | 3%
CCCN(CCC)CCNC(=O)Cn1cc2c(n1)-c1c(oc(C(=O)N3CCCC3)c1C)CC2 | . | . | -21% | 7 | . | 2.7%&6.5% | .
CCOC(=O)N1CCN(C(=O)CCl)CC1 | 13 | 7% | 13%[15.4 µM] | -2 | -2.0 | . | 14%
CC(C)CN(C(=O)COC(=O)C1CC1)c1c(N)n(Cc2ccccc2)c(=O)[nH]c1=O | -1 | 6% | 1% | -15 | . | 1.3% | .

Arranged by value in Sfp PPTase inh (falling): some entries from above.
| smiles | Sfp PPTase inh |
| --- | --- |
| NS(=O)(=O)c1ccc(CCNC(=O)CSc2ccc3ccccc3c2)cc1 | 8% |
| COC(=O)C1CCN(Cc2nnc(-c3ccccc3)o2)CC1 | 1% |
| O=C(NCc1cccs1)c1ccc(CS(=O)(=O)c2ccc(Cl)cc2)o1 | -7% |
